Compound activity: PubChem BioAssay, ICCB-Longwood Screening Facility, Harvard Medical School
MgrA-DNA mod: modulators of Staphylococcus aureus MgrA DNA binding | fluorescence polarization | 84,000 tested, 0.13% active | AID 602314 | inhibition, %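 (about 10 µg/mL by stock and volumes)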;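 active = above 50% in either of two replicates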;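 note: 0% = protein plus DNA without compound and 100% = DNA alone without protein; higher means less MgrA bound to DNA so lower polarization; one replicate is shown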
Sa helicase inh: blocks Staphylococcus aureus DNA helicase; purified S. aureus helicase, fluorescence unwinding assay; about half of the hits fall short of the stated cut; inhibition, %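 (tested at about 80 µM)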; 120,000 tested, 0.05% active; AID 485395;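 active = both duplicates at 50% or more, or one of them with a favoured structure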;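 note: 0% = mean of negative control wells and 100% = mean of positive control wells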
An asterisk follows results filed as active; x = not tested or not shown; & = joins results of further samples. These rows are one share of the data. The share of hits here may be higher or lower than overall.

SMILES | MgrA-DNA mod | Sa helicase inh
O=C1CCC(=O)N1OCc1ccc(F)cc1 | 0.8 | 1.0
O=c1[nH]c(CNCc2cccs2)nc2ccsc12 | x | 3.0
CC1CCN(S(=O)(=O)c2ccc3[nH]c(=O)cc(C(=O)NCCCN4CCOCC4)c3c2)CC1 | 1.0 | 4.0
CCC1CCCCN1C(=O)c1cnn2c1NC(c1ccco1)CC2C(F)(F)F (stereo unspecified) | -1.9 | 1.0
COCCn1c(=O)[nH]c2cc(C(=O)Nc3nnc(C)s3)ccc21 | 2.1 | -7.0
Cc1ccc(C(=O)N=c2c(=O)nc(C)n(-c3ccccc3)n2C)cc1 | -1.1 | 7.0
Cc1ccc(NS(C)(=O)=O)c(C(=O)c2ccccc2)c1 | -0.1 | 20.0
Nc1c(-c2ccccc2)nc2sccn12 | x | 7.0
CCn1c(-c2ccc3c(c2)OCCO3)cnc1SCC(=O)c1ccc2c(c1)CCN2S(C)(=O)=O | x | 24.0
CC(=O)OC1c2ccccc2C(=O)N1Cc1ccccc1 (stereo unspecified) | x | -2.0
CC1(C)c2ccccc2-n2c1cc(O)c(-c1ccccc1)c2=O | -1.3 | x
Cc1noc(C)c1C(=O)NC12CC3CC(CC(C3)C1)C2 | x | 9.0
CCN(CC)S(=O)(=O)c1ccc(Nc2c3c(nc4ccccc24)CCCC3)cc1 | -1.9 | 13.0
CCOC(=O)c1c(C)n(-c2ccccc2)c2ccc(OC(=O)c3ccccc3[N+](=O)[O-])cc12 | 3.5 | x
CN(CC(=O)Nc1ccc(C(F)(F)F)cc1)S(=O)(=O)c1cccs1 | 0.6 | 5.0
O=C(NCCc1c[nH]c2ccccc12)c1cc2c(s1)-c1ccccc1OC2 | x | 7.0
COCC1(C)OC(=O)C(C(=O)OC)=C1C (stereo unspecified) | -3.3 | x
CCOC(=O)/C(C#N)=C/Nc1cnc(N(C)C)c(C(F)(F)F)c1 | x | -16.0
O=C(O)C1CCCNC1 (stereo unspecified) | 0.0 | x
CC1=C(C(=O)Nc2cccc(C(=O)NC(C)C)c2)SCCO1 | x | 9.0
CNC(=S)N1CCN(c2ccccc2F)CC1 | 4.7 | -2.0
COc1cccc2cc(-c3csc(N)n3)c(=O)oc12 | x | -17.0
CCOC(=O)N1CCN(S(=O)(=O)c2cccc(S(C)(=O)=O)c2)CC1 | x | 1.0
CCOC(=O)c1cc(-c2ccco2)nn1-c1cccc(Cl)c1 | 3.6 | -6.0
Cc1occc1C(=O)NN1CC(=O)N(C23CC4CC(CC(C4)C2)C3)C1=O | -0.1 | -11.0
O=C(O)c1cc(N2C(=O)C3C4C=CC(C4)C3C2=O)cc(N2C(=O)C3C4C=CC(C4)C3C2=O)c1 (stereo unspecified) | 2.4 | x
CCOC(=O)c1c(C)n(C)c2ccc(OC(=O)c3ccc(OC)cc3)cc12 | x | -26.0
CC1CCCCC1NC(=O)C(Cc1ccccc1)NS(=O)(=O)c1ccc2c(c1)oc(=O)n2C (stereo unspecified) | x | 0.0
CCOC(=O)C(C)Sc1nc2c([nH]c3ccccc32)c(=O)n1C (stereo unspecified) | x | 2.0
Cc1ccc(NC(=O)c2ccc(NC3=NC4CS(=O)(=O)CC4S3)cc2)cc1F (stereo unspecified) | x | 7.0
CO[C@]12C[C@@H](COC(=O)c3cncc(Br)c3)CN(C)[C@@H]1Cc1cn(C)c3cccc2c13 | -1.6&-0.8 | x
O=C(O)Cc1n[nH]c(=O)c2ccccc12 | -0.4&-2.0 | 7.0&-15.0
COCCN(Cc1cccs1)Cc1cc(=O)oc2ccc(OC)cc12 | 0.6 | 9.0
CC1C(c2ccccc2)=[N+]([O-])C(C)(C)N1O (stereo unspecified) | 1.6 | -4.0
CCOC(=O)C1=C(N)OC2=C(C(=O)CCC2)C1c1ccc([N+](=O)[O-])cc1 (stereo unspecified) | 0.2 | x
NNC(=O)CC1CCS(=O)(=O)C1 (stereo unspecified) | x | 19.0
COC(=O)c1c(C)[nH]c(C(=O)C(C)Sc2nnc(N)s2)c1C (stereo unspecified) | x | -5.0
N#CC(c1ccc(Cl)cc1)N1CCOCC1 (stereo unspecified) | -1.8 | x
Cc1ccc(Sc2ccccc2C(=O)O)c(S(N)(=O)=O)c1 | -1.9 | x
Cc1ccc(OCCn2cc(Br)c(=O)[nH]c2=O)cc1 | x | 18.0
CCC(C)c1ccc(C(=O)COc2ccc(-c3nnco3)cc2)cc1 (stereo unspecified) | x | -20.0
CNS(=O)(=O)c1cn(CC(=O)N2CCCC2)cc1S(=O)(=O)NC | x | 3.0
CCOC(=O)C1=C(C)NC(C)=C(C(=O)OCC)C1C(=O)OCn1nnc2ccccc2c1=O | x | -6.0
O=C(NCc1cccnc1)c1nn2c(C(F)(F)F)cc(-c3cccs3)nc2c1Br | -0.2 | x
CCN=c1scc(CC(=O)OCC)n1-c1c(C)cc(C)cc1C | x | 6.0
O=C(O)C1CC2CC(O)C1C2 (stereo unspecified) | 0.8 | x
COc1ccc(NC(=O)Nc2cc(F)cc(F)c2)cc1OC1CCCC1 | -1.5 | x
N#Cc1cc([N+](=O)[O-])ccc1N1CCC(n2cccc2)CC1 | 3.0 | x
Cc1cc2nccc(C(C)Oc3ccc(Cl)cc3Cl)n2n1 (stereo unspecified) | -1.1 | x
Cc1ccc2c(Cl)c(C(=O)Nc3ccc(Br)cc3Br)sc2c1 | -0.9 | x
Cc1cc(C)n(-c2ccc(Cl)nn2)n1 | x | -2.0
CC(O)CNC(=O)CC1(CC(=O)NCC(C)O)CCCC1 (stereo unspecified) | -5.7 | -14.0
CC1CCN(S(=O)(=O)c2ccc3nc(-c4cccnc4)cc(C(=O)NCC4CCCO4)c3c2)CC1 (stereo unspecified) | 0.9 | -3.0
Cc1ccc(NS(C)(=O)=O)cc1NC(=S)Nc1cccc(Cl)c1 | -2.7 | x
Cc1ccc(Cl)cc1N1CCN(C(=O)C2CCN(S(=O)(=O)c3cccs3)CC2)CC1 | 1.4 | -3.0
O=C(NCn1cnccc1=O)c1ccccc1 | x | 4.0
O=C(OCc1csc(-c2ccccc2)n1)c1ccc(S(=O)(=O)N2CCOCC2)cc1 | x | 6.0
Cc1[nH]n(C)c(=O)c1N=Nc1ccccc1OC(F)(F)F | -2.0 | x
Nc1nc(SCC(=O)N2CCCCC2)nc2sc3c(c12)CCCC3 | x | 14.0
c1ccc(CN2CCN(c3ncnc4sc5c(c34)CCCCC5)CC2)cc1 | -4.8 | -18.0

An excerpt of these results, with values under each structure:
Screens in order: MgrA-DNA mod	Sa helicase inh
Cc1cc(C)n(-c2ccc(Cl)nn2)n1
 : x	-2.0
Cc1cc2nccc(C(C)Oc3ccc(Cl)cc3Cl)n2n1 (stereo unspecified)
 : -1.1	x

(more compounds)
SMILES | MgrA-DNA mod | Sa helicase inh
Cc1ccc(-c2nnnn2CS(=O)(=O)c2ccccc2)cc1 | x | 15.0
CCOC(=O)N1CCN(C(=O)c2ccc(CS(=O)(=O)c3c(Cl)cccc3Cl)o2)CC1 | x | 14.0
CCOC(=O)c1sc2ncn(CC(=O)OC)c(=O)c2c1C | -2.3 | 13.0
Cc1nn(CC(=O)N(C)Cc2ccccc2)c(=O)c2nn(-c3ccccc3)c(C)c12 | x | -16.0
Cc1ccc(NC(=O)CNC(=O)Cn2cnc3ccccc3c2=O)cc1F | x | 0.0
O=C1NC(=O)N(C2CCCCC2)C(=O)/C1=C/c1ccc(C(=O)O)cc1 | -2.5 | -3.0
Cc1c(C(=O)N2CCOCC2)[nH]c2ccc(OCc3ccccc3)cc12 | -0.4 | -2.0
Cc1cc(F)c(F)cc1C(=O)N1CCN(C)CC1 | -1.5 | 7.0
CCN(CC)C(=O)Cn1cc(SCC(=O)NC)c2ccccc21 | x | -8.0
CCOc1ccc(C(=O)CSc2nc3ccccc3s2)cc1 | x | 7.0
O=C(O)Cc1c(F)cccc1Cl | x | -11.0
CCOC(=O)C1CCN(C(=O)c2cc3ccccc3oc2=O)CC1 | 0.2 | 11.0
CCOC(=O)c1ccc(NC(=O)NC2CC3CCC(C2)N3Cc2nnnn2Cc2ccco2)cc1 (stereo unspecified) | -2.2 | 3.0
COc1cc(OC)c(OC)cc1CN1CCC(N2CCN(c3ccccc3OC)CC2)CC1 | x | 30.0
COC(OC)c1cc(=O)[nH]c(SC)n1 | -0.3 | x
COc1ccccc1/C=C/C(=O)Nc1sc2c(c1C(N)=O)CCC2 | 2.4 | -6.0
O=C(NCc1cccnc1)c1c(O)c2cccc3c2n(c1=O)CC3 | -0.1 | 0.0
CN(C)S(=O)(=O)c1cccc(-c2nnc3n2N=C(c2cccs2)CS3)c1 | x | 10.0
O=C(CSc1nnc(Cc2ccccc2)o1)NC1CCCCC1 | x | 19.0
COC(=O)c1cnn2c3c(c(C)nc12)CCCC3 | 2.2 | 2.0
CC(C)CCNC(=O)C12CC3CC(CC(O)(C3)C1)C2 | x | -14.0
CCc1nc(SCC(=O)C(C)(C)C)c(C#N)cc1C | -5.7 | 20.0
CCOCN(C(=O)Cn1cnc2ccccc21)c1c(C)cccc1CC | x | -1.0
COc1cccc(C2C(C#N)=C(N)Oc3n[nH]c(C(C)(C)C)c32)c1 (stereo unspecified) | x | 18.0
Cc1ccc2c(c1)N(C(=O)Nc1ccccc1C)CC(C)O2 (stereo unspecified) | x | 17.0
CCN(C(=O)c1cc2c(=O)oc3ccccc3c2s1)c1ccccc1 | 0.5 | 6.0
CN(C(=O)COCc1cc(-c2ccco2)on1)C1CCCCC1 | x | 8.0
O=c1oc(-c2ccc(Cl)c(Cl)c2)nn1-c1ncc(C(F)(F)F)cc1Cl | -0.4 | x
Cc1ccc(/C(O)=C2/C(=O)C(=O)N(CCN(C)C)C23C(=O)N(C)c2ccccc23)cc1 (stereo unspecified) | -1.9 | 1.0
CC(NC(=O)c1cccc(F)c1)C(c1cccs1)N1CCN(C)CC1 (stereo unspecified) | x | 3.0

Ordered by length of the SMILES (lowest first): 3 of the compounds above.
SMILES | MgrA-DNA mod | Sa helicase inh
N#CC(c1ccc(Cl)cc1)N1CCOCC1 (stereo unspecified) | -1.8 | x
CCc1nc(SCC(=O)C(C)(C)C)c(C#N)cc1C | -5.7 | 20.0
CNS(=O)(=O)c1cn(CC(=O)N2CCCC2)cc1S(=O)(=O)NC | x | 3.0

Continuation.
SMILES | MgrA-DNA mod | Sa helicase inh
Cc1cc2c(cc1C)CSC(C)(c1ccc(F)cc1)SC2 | 2.7 | x
CCSc1ncc(Cl)c(C(=O)Nc2ccc(S(=O)(=O)N3CC(C)OC(C)C3)cc2)n1 (stereo unspecified) | -1.1 | 4.0
COc1ccc(S(=O)(=O)Nc2cccnc2)c2ccccc12 | x | 15.0
CC1=CC(C)C(C[N+]2(C)CCCCC2)C(C)C1 (stereo unspecified) | 0.4 | -25.0
Cc1cc2nnc(SCC(=O)c3cc(C)n(Cc4ccccc4)c3C)n2c2ccccc12 | 0.1 | 3.0
CC(C)(C)OC(=O)N1CCCN(S(=O)(=O)c2ccc(Cl)cc2)CC1 | -2.8 | x
CC1(C)NC(=O)N(CCOc2ccc(F)cc2)C1=O | 4.5 | 9.0
COc1ccc2c(CC(=O)OCc3c(C)noc3C)coc2c1 | x | -22.0
Cn1c(C(=O)NCCCN2CCN(c3ccccc3F)CC2)cc2c(=O)[nH]c3ccccc3c21 | x | -12.0
CCOC(=O)c1cnc(NCc2ccccc2)s1 | -1.6 | x
CSc1ccc(-c2ccc(SC)cc2)cc1 | 1.4 | 4.0
Cc1ccc(NC(=O)CCNS(=O)(=O)c2ccc3nc(-c4ccccc4)[nH]c3c2)cc1 | 0.8 | -2.0
O=C(NCCSc1ccccc1)c1ccco1 | -0.6 | 5.0
Cc1ccccc1C(=O)N(c1cc(C(F)(F)F)cc(C(F)(F)F)c1)c1nc2ccccc2s1 | 0.2 | x
Cc1ccc2onc(OC(=O)NC(C)(C)C)c2c1 | -1.7 | x
COc1ccc(C2CC(C(F)(F)F)n3ncc(C(=O)N4CCN(C(c5ccccc5)c5ccccc5)CC4)c3N2)cc1 (stereo unspecified) | 3.4 | x
CN(C)c1nc(C23CC4CC(CC(C4)C2)C3)cs1 | x | 7.0
CCOC(=O)c1c(C)[nH]c(C)c1S(=O)(=O)NCC(=O)N1CCN(c2ccccc2)CC1 | x | 10.0
COc1cc(CO)c(Br)cc1O | 2.7 | -5.0
O=C(/C=C/c1nc2ccccc2s1)OCC(=O)N1CCCC1=O | x | 9.0
CC1=C2C(=O)CCCC2=Nc2ccccc2N1 | x | -6.0
O=C(CN1C(=O)CCSc2ccccc21)NCCCN1CCN(C2CCCCC2)CC1 | x | -20.0
CSC1=C(C#N)C(=O)NC(C)(C)S1 | -3.1 | x
O=c1[nH]cc(-c2nc3ccccc3s2)c(=O)[nH]1 | x | -2.0
O=c1c2c3c(sc2ncn1Cc1nn[nH]n1)CCCC3 | -0.2 | -1.0
O=C(NCc1ccccn1)c1ccc(N2CCCC2=O)cc1 | -0.6 | 6.0
O=C(CSC1CCCCC1)Nc1cccnc1Cl | x | -4.0
O=C(O)COCC(=O)Nc1cc(Cl)cc(Cl)c1 | x | -9.0
c1nc2nnnn2c2c1CCCC2 | x | 5.0
CN1CCSc2ccc(C(=O)NCCCN3CCCC3)cc21 | x | 36.0
Cc1cc(C)nc(NS(=O)(=O)c2ccc(NC(=O)c3ccc(Br)cc3)cc2)n1 | -1.3 | x
Cc1cccc(C(=O)NCc2n[nH]c(=S)n2-c2ccccc2)c1 | 0.7 | -10.0
CC(C)(C)n1ncc2c(=O)n(Cc3cccc(C(F)(F)F)c3)cnc21 | 0.5 | 4.0
CNC(=S)Nc1ccc(OC)cc1C | -2.1 | -1.0

Part of the list above, with values under each structure.
Each structure is followed by: MgrA-DNA mod	Sa helicase inh
Cc1cccc(C(=O)NCc2n[nH]c(=S)n2-c2ccccc2)c1
→ 0.7	-10.0
CC(C)(C)n1ncc2c(=O)n(Cc3cccc(C(F)(F)F)c3)cnc21
→ 0.5	4.0
CNC(=S)Nc1ccc(OC)cc1C
→ -2.1	-1.0
